# LANA-nucl inh – LANA-nucleosome interaction inhibition; FITC-LANA1-23 / chicken nucleosome fluorescence polarization; active compounds read low; z-score (test concentration not listed); 0.3% of 51,000 active; AID 720717;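 active means both repeat wells score below -2 in polarization z-score versus plate sample wells, excluding overly bright wells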;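 further: 100 nL library stock added to about 30 µL; numbers are from one replicate; some results filed as inactive read as strong as hits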
#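 Test system: purified chicken nucleosomes with FITC-labelled LANA N-terminal peptide (1-23); Input: 240 nM purified chicken nucleosomes (480 nM peptide binding sites), final; Medium: TEN-BT buffer, pH 7.5; Timing: 10–45 min, room temperature; Technique: fluorescence polarization, 480 nm excitation, 535 nm parallel and perpendicular emission; Replication: duplicates.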
# Ab BasE inh – BasE siderophore biosynthesis inhibition; purified BasE, fluorescence polarization binding displacement; inhibition, % (no concentration beside the values); 0.1% of 84,000 active;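 active means both replicates above 25% with normal brightness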;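 further: 0% = negative plate control signal and 100% = positive plate control signal; stock transfer was 100 nL into about 30 µL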
# Active calls of the source: *; . = no result given; & = joins results of further samples. Not all compounds are listed, so the mix of outcomes need not match the whole.
SMILES,LANA-nucl inh,Ab BasE inh
c1ccc(CSc2nnnn2-c2ccccc2)cc1,.,2.3
Cc1c(C(=O)N(CC2CCCO2)C2CCS(=O)(=O)C2)oc2ccc(F)cc12 (configuration not stated),.,4.0
C=C(C)c1cccc(C(C)(C)NC(=O)Nc2ccc(N3CCOCC3)cc2)c1,0.52,0.0
Cc1ccc(CS(=O)Cc2ccc(C(=O)NCc3cccnc3)o2)cc1 (configuration not stated),-0.44,-1.3
CC(C)CC(C(N)=O)N1C(=O)c2ccccc2C1=O (configuration not stated),-0.29,0.3
Cc1nc2c(c(C)c1CCC(=O)NCCC1=CCCCC1)c(=O)n(C)c(=O)n2C,-0.78,0.6
CC(=NCCc1ccc(F)cc1)C1=C(O)c2ccccc2C1=O,.,-0.2
C=CCn1c(=N)n(CC(O)c2ccc(OCC)cc2)c2ccccc21 (configuration not stated),-0.29,0.1
COc1cc(OC)cc(-c2cc3nc(-c4ccccc4)cc(N4CCN(c5ccccc5)CC4)n3n2)c1,0.0065,-1.0
CC12CN3CC(C)(CN(C1)C3C(O)C(O)C(O)CO)C2 (configuration not stated),0.37,0.0
CSc1nc(-c2ccc(Cl)cc2)nn1S(=O)(=O)c1ccc(NC(C)=O)cc1,0.56,2.6
CC1(C)NC(C)(C)/C(=N\O)C(=NO)/C1=N\O,-0.87,2.0
CSc1nn(-c2ccccc2)cc1/C(N)=N/OC(=O)Nc1ccccc1,-0.98,3.8
Cc1cccc(NC(=O)N2CCCC2C(=O)O)c1 (configuration not stated),-0.65,0.8
Cn1nc(-c2ccc(C(=O)Nc3cccnc3)cc2)c2ccccc2c1=O,0.95,1.8
CCCn1c(N)c(C(c2cc(OC)c(OC)c(OC)c2)N2CCCC2)c(=O)[nH]c1=O (configuration not stated),.,-0.1
CCN1CCN(C(=O)c2oc3ccc4c(c3c2C)C(=O)CC2(CCCCC2)O4)CC1,0.025,-0.1
CC(C)OC(=O)N(C)c1ccc(C(O)(C(F)(F)F)C(F)(F)F)cc1,.,0.7
N#CC1(NC(=O)CN2CCN(C(=O)c3ccccc3)CC2)CCCC1,.,0.9
CCOc1cc(C=NN2CCN(Cc3ccccc3)CC2)ccc1O,-0.23,3.4
Cc1cc(C(F)F)c2c3ccccc3n(C)c2n1,.,-0.8
Cn1cnnc1SCc1ccc(C#N)cc1,.,5.2
S=c1[nH]nc(-c2ccccc2)n1-c1ccccc1,0.4,-1.6
NS(=O)(=O)c1ccc(CCNC(=S)NCc2ccco2)cc1,-0.031,1.9
COc1ccc(-n2ccnc(SCC(=O)Nc3ccccc3)c2=O)cc1,-0.0045,-0.7
Cc1ccc2nc(NC(=O)c3ccc(=O)[nH]c3)sc2c1,.,-7.6
N#C/C(=C(/O)COc1ccccc1)c1nc2ccccc2[nH]1,.,0.1
CCOC(=O)N1CCN(C(=O)CN2C(=O)/C(=C\c3cccc(Cl)c3)Sc3ccccc32)CC1,-0.87,0.9
CC1(C)NC(=S)c2ccccc2N1,-0.15,4.1
NC1=CC(=O)CC(c2ccc(Cl)cc2)C1 (configuration not stated),-0.036,.
O=S(=O)(c1ccc2oc(SCc3cn4cc(Cl)ccc4n3)nc2c1)N1CCOCC1,.,0.7
Cc1cc(C)c(N2C(=O)c3nccnc3C2=O)c(C)c1,-0.37,0.0
CC(C)(C)c1ccc(COC(=O)C2=COCCO2)cc1,.,0.2
O=c1[nH]c(-c2ccc(Br)cc2)nc2ccccc12,-0.49,1.6
Cc1[nH]c2ccccc2c1C1CC(=O)N(c2ccccc2)C1=O (configuration not stated),.,-1.7
Cc1ccc(N(Cc2ccco2)S(=O)(=O)c2ccc(F)cc2)cc1,-1.2,4.5
CCOC(=O)COc1ccc(S(=O)(=O)Nc2cccc(SC)c2)cc1,-0.8,1.1
CCc1ccc(C(=O)N(CC)Cc2ccncc2)s1,-1.7,3.7
O=C(/C=C/c1ccc(S(=O)(=O)N2CCOCC2)cc1)N1CCCCC1,.,1.4
CS(=O)(=O)N1Cc2ccccc2CC1C(=O)OCc1nc2ccccc2c(=O)n1CC#N (configuration not stated),.,3.5
O=C(OCC(=O)c1cccs1)c1ccco1,.,2.1
O=C(O)CC(O)(CC(=O)O)C(=O)O,0.31&-0.12,-0.6&-1.6
O=C(O)Cc1cccnc1,-1.4,0.4
Cc1nnc2c(=O)n(-c3cccc(F)c3)ccn12,0.96,-1.0
COc1ccc(NC(=O)C(C)N2C(=O)c3ccccc3S2(=O)=O)c(OC)c1 (configuration not stated),0.5,4.0
O=C(c1cc2ccccc2oc1=O)N1N=C(c2ccccc2)CC1c1ccccc1 (configuration not stated),.,-0.3
CCOC(=O)C1=C(O)/C(=C/c2cccs2)SC1=Nc1ccccc1,.,-3.7
CCCc1nc(N)c(C#N)c(-c2cccs2)c1CC,-0.16,-0.8
N#Cc1cccc(NC(=O)CCC(=O)N2CCN(S(=O)(=O)c3ccccc3)CC2)c1,.,-0.3
Cc1csc(NC(=O)C2CCCN(S(=O)(=O)c3cccc4nsnc34)C2)n1 (configuration not stated),0.42,1.2

# Profiles as entered above.
# O=C(c1cc2ccccc2oc1=O)N1N=C(c2ccccc2)CC1c1ccccc1 (configuration not stated) is listed as LANA-nucl inh: .; Ab BasE inh: -0.3
# Cc1nnc2c(=O)n(-c3cccc(F)c3)ccn12 is listed as LANA-nucl inh: 0.96; Ab BasE inh: -1.0

# (cont.)
SMILES,LANA-nucl inh,Ab BasE inh
O=C(c1ccccc1)N(Cc1ccco1)Cc1ccco1,0.97,1.0
O=C(O)CC(NC(=O)c1cncc(O)c1)C(=O)O (configuration not stated),-0.33,0.0
N#C/C(=C/c1ccc(-c2ccc(C(=O)O)cc2)o1)c1ccc(Cl)cc1,1.4,0.0
COc1ccc(-c2cc(C(=O)O)c3ccccc3n2)cc1OC,-0.39,-0.9
COc1ccccc1NC(=O)N1CCNCC1,0.42,-0.6
Cc1ccc(NC(=O)C(C)OC(=O)CSc2ccccc2)cc1 (configuration not stated),.,1.5
CC[C@H](C)NC(=O)Cc1ccc(NC2=NC3CS(=O)(=O)CC3S2)cc1 (some centres not stated),0.33,-2.0
O=C(Cn1cnc2sccc2c1=O)NC(=O)NC1CCCC1,.,0.1
O=C(O)CN1C(=O)/C(=c2/sc3nc4ccccc4n3c2=O)c2cc(Br)ccc21,.,1.1
Cc1cc(CNC(=O)COC(=O)C2CC3CCCC(C2)C3=O)cc(C)c1O (configuration not stated),.,-1.1
O=C(CCC(=O)c1ccccc1)Nc1cccnc1,-0.43,2.3
O=C(N/N=C/c1ccc(-c2ccc(S(=O)(=O)Nc3ncccn3)cc2)o1)C12CC3CC(CC(C3)C1)C2,.,-4.9
Cc1cc(C)c2nc(N3CCCN(C(=O)c4ccco4)CC3)c(C#N)cc2c1,0.14,-0.1
CCOC(=O)C(CC)Sc1nnc(-c2ccccc2Br)n1C (configuration not stated),-0.49,1.4
Cc1nc(C(=O)NCC(=O)c2ccc(Cl)cc2)c(C(F)(F)F)o1,.,-1.8
CCOCCC(=O)Nc1ccccc1Sc1ccccc1,1.1,0.9
CC(C)C(NS(=O)(=O)c1ccccc1)C(=O)Nc1ccccc1 (configuration not stated),0.96,3.6
COc1ccc(C2C(C(=O)N3CCN(c4ccc(OC)cc4)CC3)c3ccccc3C(=O)N2C)cc1 (configuration not stated),0.36,2.2
CC(=O)Nc1nc(-c2cccs2)nc2c1c(=O)oc1ccccc12,-0.98,0.2
CCOC(=O)c1c(C)oc2c1c(C=NCCCN1CCOCC1)c(O)c1ccccc12,.,-0.7
CC(C)(C)c1cc2oc3c(c2c(C=NCc2ccncc2)c1O)CCCC3,.,-0.6
O=C(Nc1ccccc1C(=O)NCCc1ccccc1)c1ccno1,.,-1.1
CC1Cc2cc(C(=O)NCC(c3ccco3)N3CCCC3)ccc2N1S(C)(=O)=O (configuration not stated),.,1.9
Cc1cc(C(=O)C(C)OC(=O)CN2CCSC2=O)c(C)n1-c1ccc(Cl)cc1 (configuration not stated),.,3.9
CC1CCCCN1C(=O)CSc1nc2ccccc2[nH]1 (configuration not stated),.,1.9
COC(=O)c1cc(C)nc2c1c(=O)n(C)c(=O)n2C,-0.61,1.1
COc1ccccc1CNc1ccc2c(c1)ncn2C(C)C,-1.6,-0.2
COc1cc(C(=O)Nc2sc(C(=O)N3CCOCC3)c(C)c2C#N)cc(OC)c1OC,0.29,-0.2
COc1ccc(-c2nnc(SCc3nc(N)nc(Nc4ccccc4C)n3)o2)cc1OC,.,-0.1
O=C1SC(c2ccccc2)=N/C1=C/c1ccco1,.,0.5
Cn1nnnc1SCC(=O)NC(=O)c1ccccc1Br,.,3.4
CC(=O)Nc1ccc(CCc2nc3ccccc3[nH]2)cc1,-0.87,-2.6
CN(CCOc1ccccc1)CC(=O)Nc1cccc(C#N)c1,.,-1.1
CC(=O)Nc1cccc(N2C(=O)C=CC2=O)c1,0.95,0.8
Nc1nc2c(nc(N3CCCCC3)n2[C@@H]2O[C@H](CO)[C@@H](O)[C@H]2O)c(=O)[nH]1,-0.38,3.0
O=C(Nc1ccc(-n2cncn2)cc1)c1ccccc1N1CCOCC1,.,2.2
CC(CN1CCCCC1)NC(=O)c1cccs1 (configuration not stated),0.45,-0.6
Cc1ccc(-n2c(N)c(C#N)c3nc4ccccc4nc32)cc1C,.,1.2
Cc1[nH]c(C)c(S(=O)(=O)NC(C)(C)C)c1C(=O)N1CCCC1,0.68,3.9
Cc1cc(NC(=O)Cc2ccccc2)no1,-0.37,0.9
CN(c1ccc(C(=O)NCC2CCCO2)cc1)S(C)(=O)=O (configuration not stated),-0.51,-1.0
CCOc1ccccc1/C=C/C(=O)NCC(=O)N1CCC(N(C)C2CCCC2)CC1,0.24,0.2
COc1ccc(S(=O)(=O)N2CCN(C(C)C(=O)NCc3ccccc3)CC2)cc1 (configuration not stated),.,1.7
O=C(COC(=O)CC1CCS(=O)(=O)C1)Nc1ccc(F)cc1 (configuration not stated),.,0.5
CS(=O)(=O)c1cccc(C(=O)NCc2ccccc2)c1,.,-1.4
Cc1ccc(/C=N/c2sccc2C#N)cc1,-6.5*,.
COc1ccc(Cl)cc1CC(=O)O,.,2.3
COC(=O)c1ccc(OC(=O)/C=C/c2cccn2C)cc1,.,4.2
NC(=O)c1ccc(N2CCCCC2)c(N2C(=O)C3CC=CCC3C2=O)c1 (configuration not stated),-1.6,-0.2
CCOC(=O)c1cc(CSc2n[nH]c(=O)n2-c2ccccc2)on1,-0.95,-2.8
# Remaining list, next part:
SMILES,LANA-nucl inh,Ab BasE inh
CC1CCCCN1C(=O)c1ccc(C(=O)c2ccccc2)cc1 (configuration not stated),.,1.9
N#Cc1c(NCc2ccccc2)ncc2c1Nc1ccccc1C2,-3.3*,-0.9
O=C(O)c1cccc(S(=O)(=O)NCC(F)(F)F)c1,.,4.3
Cc1c(C)c(C)c(C#CCO)c(C)c1C,-0.11,-1.6
CC(=O)Oc1cc(C)c2c(=O)c(-c3csc(C)n3)coc2c1,.,1.2
O=C(Nc1ccccc1Cl)c1cc2ccccc2oc1=O,.,3.1
CC(C)=CC(=O)Nc1ccc2c(c1)OCCO2,-0.21,14
Cc1ccc(C)c(-n2nnnc2SCC(=O)OCC(=O)Nc2ccccc2C)c1,.,1.6
Cc1ccc(-c2nnc(Nc3ccccc3)c3ccccc23)cc1S(=O)(=O)NC(C)(C)C,.,-1.4
CCN1C(=O)S/C(=C/c2cc(Br)c(OCC(=O)O)c(OC)c2)C1=O,0.32,3.0

# Gathered by group, those above with a cyano group.
SMILES,LANA-nucl inh,Ab BasE inh
N#CC1(NC(=O)CN2CCN(C(=O)c3ccccc3)CC2)CCCC1,.,0.9
Cn1cnnc1SCc1ccc(C#N)cc1,.,5.2
N#C/C(=C(/O)COc1ccccc1)c1nc2ccccc2[nH]1,.,0.1
CS(=O)(=O)N1Cc2ccccc2CC1C(=O)OCc1nc2ccccc2c(=O)n1CC#N (configuration not stated),.,3.5
CCCc1nc(N)c(C#N)c(-c2cccs2)c1CC,-0.16,-0.8
N#Cc1cccc(NC(=O)CCC(=O)N2CCN(S(=O)(=O)c3ccccc3)CC2)c1,.,-0.3
N#C/C(=C/c1ccc(-c2ccc(C(=O)O)cc2)o1)c1ccc(Cl)cc1,1.4,0.0
Cc1cc(C)c2nc(N3CCCN(C(=O)c4ccco4)CC3)c(C#N)cc2c1,0.14,-0.1
COc1cc(C(=O)Nc2sc(C(=O)N3CCOCC3)c(C)c2C#N)cc(OC)c1OC,0.29,-0.2
CN(CCOc1ccccc1)CC(=O)Nc1cccc(C#N)c1,.,-1.1
Cc1ccc(-n2c(N)c(C#N)c3nc4ccccc4nc32)cc1C,.,1.2
Cc1ccc(/C=N/c2sccc2C#N)cc1,-6.5*,.
N#Cc1c(NCc2ccccc2)ncc2c1Nc1ccccc1C2,-3.3*,-0.9

# Next section.
SMILES,LANA-nucl inh,Ab BasE inh
Cc1oc2ncn(CC(C)C)c(=O)c2c1C(=O)NC1CC1,.,1.2
CC(=O)N1CCN(c2ccc(OCC3CO[C@](Cn4ccnc4)(c4ccc(Cl)cc4Cl)O3)cc2)CC1 (some centres not stated),-0.094&-0.96,-1.4
Nc1ccc(Oc2ccccc2)cc1,.,1.3
CC1CN(c2nn(C)c(=O)n(C)c2=O)CC(C)O1 (configuration not stated),.,1.4
CCN(Cc1ccc2c(c1)OCCO2)C(=O)c1c(F)cccc1F,.,1.4
COc1ccccc1NC(=O)c1c(N)n[nH]c1C,.,-0.1
CC(C)CN(CC(C)C)C(=O)CSc1ncn[nH]1,.,2.6
CN(C(=O)CSc1nnc(C(F)(F)F)n1N)C1CCS(=O)(=O)C1 (configuration not stated),.,0.6
Cc1ccc(C2=NN=C(NC(=O)CSc3nnc(C)s3)SC2)cc1,-1,-0.4
Cc1ccc(C(=O)OCC(=O)N2CCCC2)c(O)c1,.,2.0
O=C(C1c2ccccc2C(=O)N2CCc3ccccc3C12)N1CCN(Cc2ccccc2)CC1 (configuration not stated),-2.1,1.7
CCC(=O)N/N=C/c1ccc(-c2ccc(Cl)cc2)o1,-0.28,2.4
